Screening data from PubChem BioAssay.
H5N1 antiviral: MDCK cell protection from H5N1 avian flu | cytopathic effect, luminescence, 72 h; stronger effect = higher value; no value below 0 was filed and about half of the inactive calls have no number; reference of the scale not given here | inhibition, % at 50 µM | 96,000 tested, 0.07% active; in the data active = inhibition above about 25%
Starred values were filed as active, the others as inactive; i = inactive. A portion of the library; the hit share may differ from the screen's.

nr | Structure | H5N1 antiviral
1 | CCOC(=O)N1CCN(c2nc(C)cc(C(F)(F)F)n2)CC1 | 0.7
2 | O=C(Oc1ccc2ccc(OC(=O)N3CCOCC3)cc2c1)N1CCOCC1 | 0.4
3 | CCSc1nc2c(c(=O)[nH]1)C(C(C)C)C(C#N)=C(N)O2 (configuration not stated) | 1.4
4 | Cc1csc(NC(=O)c2cc3c(s2)CCCC3)n1 | i
5 | O=C(CSc1nnc(-c2cccnc2)n1Cc1ccco1)c1ccc(Cl)c(Cl)c1 | i
6 | CCOc1ccc(CCNC(=O)C(CC)n2nc(C)n3c(cc4sccc43)c2=O)cc1OCC (configuration not stated) | 0.4
7 | COc1cc(CN2CCN(c3ccccc3F)CC2)cc(OC)c1O | 0.9
8 | Nc1ccc(C(=O)Nc2ccccc2C(=O)O)cc1 | 0.3
9 | O=C(CCCCn1c(=O)c2ccccc2n(CC(=O)Nc2cccc(F)c2)c1=O)NCc1ccco1 | i
10 | CC(C)CN(CC(C)C)c1nc(N)c(C#N)c(CC#N)c1C#N | i
11 | COc1ccc(N(CC(=O)NCCSc2ccccn2)S(C)(=O)=O)cc1 | i
12 | O=C(/C=C/c1ccc(Cl)cc1)Nc1ccc(N2CCCCC2)cc1 | i
13 | NC(=O)CN1CCOCCOCCN(CC(N)=O)CCOCC1 | i
14 | O=S(=O)(c1ccc(Br)s1)N1CCN(c2ncccn2)CC1 | 0.3
15 | COc1ccc(CNC(=O)CCn2cccc2)cc1 | i
16 | CC(=O)Nc1ccccc1NC(=O)C(F)(F)F | i
17 | NC12CC3CC(C1)CC(O)(C3)C2 | i
18 | CCCc1nc(SCC(=O)N2CCCC2)c2ccccc2n1 | 2.9
19 | O=C(Nc1ccc2c(c1)oc1ccccc12)C1CC1 | 3.9
20 | CCn1c(=NC(=O)CSC(C)=O)sc2ccccc21 | 0.8
21 | CC(C)c1nc(=S)n(-c2ccccc2)[nH]1 | 1.5
22 | CCOC(=O)C(Oc1ccc2c(-c3ccc(OC)cc3)cc(=O)oc2c1C)c1ccccc1 (configuration not stated) | i
23 | O=C(NCC1CCN(c2ccc(S(=O)(=O)N3CCOCC3)cc2)CC1)c1cccc(Cl)c1 | i
24 | CCc1ccc2oc(-c3cc(N)cc(C)c3O)nc2c1 | i
25 | CN1CCCN(C(=O)c2cc(=O)[nH]c3ccccc23)c2nc3ccccc3nc21 | 1.4
26 | CN1CCN(C2=C(Cl)C(=O)N(c3ccc(Cl)c(Cl)c3)C2=O)CC1 | i
27 | CC(=O)C1=C(O)C(=O)N(Cc2ccccc2)C1c1ccccc1F (configuration not stated) | i
28 | CC(=O)c1ccc(NC(=O)N2CCN(c3cccc(Cl)c3)CC2)cc1 | 0.2
29 | Cc1ccccc1Cn1cc(NC(=O)COc2ccccc2)cn1 | i
30 | COC(=O)c1cccc(-n2[nH]nnc2=S)c1 | i

Reprinted from the results shown (6 entries):
nr | Structure | H5N1 antiviral
25 | CN1CCCN(C(=O)c2cc(=O)[nH]c3ccccc23)c2nc3ccccc3nc21 | 1.4
26 | CN1CCN(C2=C(Cl)C(=O)N(c3ccc(Cl)c(Cl)c3)C2=O)CC1 | i
27 | CC(=O)C1=C(O)C(=O)N(Cc2ccccc2)C1c1ccccc1F (configuration not stated) | i
28 | CC(=O)c1ccc(NC(=O)N2CCN(c3cccc(Cl)c3)CC2)cc1 | 0.2
29 | Cc1ccccc1Cn1cc(NC(=O)COc2ccccc2)cn1 | i
30 | COC(=O)c1cccc(-n2[nH]nnc2=S)c1 | i

Next part:
nr | Structure | H5N1 antiviral
31 | Cc1cc(NC(=O)CN2CCCCC2C)no1 (configuration not stated) | 1.3
32 | O=S(=O)(c1cccc(C(F)(F)F)c1)N1CCC(O)(c2cccnc2)CC1 | 0.3
33 | CC(=O)N(CN1C(=O)c2ccccc2C1=O)c1cccc(C)c1 | 0.3
34 | COc1cccc(N(C(=O)Cn2nnc(-c3cccs3)n2)C(C(=O)NC2CCCCC2)c2ccncc2)c1 (configuration not stated) | 5.2
35 | Clc1ccc(-c2nnc(C3CCCCC3)o2)cc1 | 0.5
36 | Cc1cc(Nc2ccccc2C(=O)O)nc2nc3ccccc3c(=O)n12 | i
37 | CN(c1ccccc1C(N)=O)S(=O)(=O)c1ccccc1 | i
38 | C/C(=N/Oc1nc(C)cc(C)n1)c1ccc(F)cc1 | i
39 | C=C1CSc2nc(=O)c3c(C)c(C)sc3n21 | 0.6
40 | Cc1nc(/N=C(\N)Nc2ccccc2)nc2ccccc12 | i
41 | O=C(c1ccc(CNS(=O)(=O)c2ccccc2)cc1)N1CCC2(CC1)OCCO2 | 1.0
42 | Cc1cc(C)nc(Sc2c(C)n[nH]c2C)n1 | i
43 | Cc1ccc(N2C(=O)CC(N3CCN(C4CCc5ccccc5C4)CC3)C2=O)cc1 (configuration not stated) | i
44 | Cc1ccc(N2C(=O)C(O)(C(F)(F)F)C3=C2CC(C)(C)CC3=O)cc1C (configuration not stated) | 1.1
45 | Cn1c(=O)n(C)c2cc(C(=O)c3ccccc3)ccc21 | 0.9
46 | CCC(C)(C)n1nnnc1C(c1cc2cc(C)cc(C)c2[nH]c1=O)N1CCN(C(=O)c2ccco2)CC1 (configuration not stated) | i
47 | CC(C)(C)n1nnnc1C(c1cccnc1)N(Cc1ccccc1)Cc1cccs1 (configuration not stated) | i
48 | COc1ccccc1-c1n[nH]c(=S)n1-c1ccccc1 | 1.1
49 | Cc1ccc(C(=O)CSc2ncnc3sc4c(c23)CCCC4)cc1 | i
50 | COC(=O)c1cc(NC(=O)Cc2ccccc2[N+](=O)[O-])cc(C(=O)OC)c1 | 0.3
51 | O=C(CC(CC(=O)c1ccccc1)C(=O)O)c1ccccc1 | i
52 | COc1ccc(S(=O)(=O)N2CCN(Cc3c[nH]c4ccccc34)CC2)cc1 | 0.6
53 | Nc1c2c(nc3ccn(-c4ccccc4)c(=O)c13)CCCCC2 | 0.3
54 | O=C(Nc1ncc(Cc2cc(Cl)ccc2Cl)s1)c1ccc([N+](=O)[O-])cc1 | 7.0
55 | CCn1c(SCC(=O)Nc2ccc(OC)c(OC)c2)nnc1-c1cccs1 | i
56 | Cn1c(=O)[nH]c(=O)c2c1nc(N1CCCC1)n2CCCSc1nc2ccccc2o1 | 2.5
57 | COc1ccccc1-c1c(C)nn2c(C)cc(C)nc12 | 0.3
58 | Cn1c(=O)oc2cc(S(=O)(=O)NCCN3CCN(c4ccccc4)CC3)ccc21 | 0.8
59 | COc1ccc(CCN2C(=O)c3[nH]nc(-c4ccccc4O)c3C2c2ccc(C)cc2)cc1OC (configuration not stated) | i
60 | Cc1cc(NCCC(C)C)n2nc(C)c(-c3ccccc3)c2n1 | 2.2

More entries.
nr | Structure | H5N1 antiviral
61 | CCCNC(=O)c1ccccc1NC(=O)COc1ccc(OC)cc1 | 0.4
62 | O=[n+]1cc(-c2ccccc2)n([O-])c2c1CCC2 | i
63 | CCOC(=O)c1nn(-c2ccccc2)c2nc(Nc3ccccc3)cc(=O)n12 | 0.9
64 | CC(=O)Nc1nonc1NC(C)=O | 0.8
65 | COc1ccc(S(=O)(=O)N(c2onc(C)c2Cl)S(=O)(=O)c2ccc(OC)cc2)cc1 | i
66 | COc1cccc(-c2nc(N3CC(C)CC(C)C3)c3ccccc3n2)c1O (configuration not stated) | 1.7
67 | CC(=O)Nc1ccc(SCC(=O)OCC(=O)NC(=O)NCc2ccco2)cc1 | i
68 | CC(=O)c1cc(-c2ccc(F)cc2)n(CC(=O)NCc2cccs2)c1C | 0.3
69 | CC(=O)Nc1ccc(S(=O)(=O)Nc2nc3ccccc3s2)cc1 | i
70 | O=C1c2ccccc2C(=O)N1CCc1csc(-c2cccc(F)c2)n1 | i
71 | COCCNC(=O)C(c1cccc(OC)c1)N(Cc1cccs1)C(=O)Cn1nnc2ccccc21 (configuration not stated) | i
72 | CC/C(=N\O)C(C)(C)/[N+]([O-])=C/c1ccc(Br)cc1 | i
73 | CCCCCCCSc1cc(OC)c(CCN(C)C)cc1OC | i
74 | O=C(Cc1coc2ccc3ccccc3c12)Nc1nccs1 | i
75 | COCCNS(=O)(=O)c1cc(Br)ccc1OC | i
76 | CC1CCN(C(c2ccc(N(C)C)cc2)c2nnnn2C(C)(C)C)CC1 (configuration not stated) | i
77 | CCCOc1ccc(N2CC(C(=O)NC(C)C)CC2=O)cc1 (configuration not stated) | 0.6
78 | Cc1ccc2nc(-c3ccc(NC(=O)c4ccco4)cc3)[nH]c2c1 | i
79 | COC(C(=O)Nc1cccc(F)c1)c1ccccc1 (configuration not stated) | 1.2
80 | O=C(O)c1ccccc1C1=Nc2ccc(O)cc2Oc2cc(O)ccc21 | i
81 | CCOc1ccc(-n2cc(C(=O)Nc3cccc(OC)c3)c3cc(OC)c(OC)cc3c2=O)cc1 | 0.9
82 | O=C(Cn1ncc2c(=O)oc3ccccc3c21)N(Cc1ccco1)C1CCCCC1 | 0.8
83 | CCCOc1ccc(/C=C/C(=O)Nc2ccc([N+](=O)[O-])cc2)cc1 | 2.4
84 | Cc1csc2nc(CNC(=O)c3ccco3)cn12 | 0.2
85 | O=S(=O)(NCC1OCCc2ccccc21)c1ccccc1 (configuration not stated) | 0.1
86 | COC(=O)CSc1nnc(-c2ccc(NS(=O)(=O)c3ccccc3)cc2)o1 | 0.8
87 | Cc1cc(C(=O)NCCCN2CC(C)CC(C)C2)n(-c2ccccc2)n1 (configuration not stated) | 1.1
88 | COc1cccc(C2CC(c3cccc(OC)c3)n3nc(N)nc3N2)c1 (configuration not stated) | 2.6
89 | COc1ccc(C(=O)Cn2c(C(=O)/C=C/c3ccccc3)nc3ccccc32)cc1 | 1.7
90 | CSc1nnc(CNC(=O)c2ccccc2)n1-c1ccc(F)cc1 | 3.7

Sorted by number of heavy atoms (lowest first): part of the list above
nr | Structure | H5N1 antiviral
62 | O=[n+]1cc(-c2ccccc2)n([O-])c2c1CCC2 | i
84 | Cc1csc2nc(CNC(=O)c3ccco3)cn12 | 0.2
61 | CCCNC(=O)c1ccccc1NC(=O)COc1ccc(OC)cc1 | 0.4
76 | CC1CCN(C(c2ccc(N(C)C)cc2)c2nnnn2C(C)(C)C)CC1 (configuration not stated) | i
66 | COc1cccc(-c2nc(N3CC(C)CC(C)C3)c3ccccc3n2)c1O (configuration not stated) | 1.7

(continued)
nr | mol | H5N1 antiviral
91 | O=C(c1ccc(CSCc2ccccc2F)o1)N1CCN(c2ccc(N3CCOCC3)nn2)CC1 | 0.3
92 | COc1ccc(C(=O)NCCn2cc(SCC(=O)Nc3cc(C)on3)c3ccccc32)cc1OC | i
93 | O=C(Cc1ncc(C(F)(F)F)cc1Cl)N1CCN(c2ccccn2)CC1 | i
94 | COc1cc([C@@H]2[C@H]3CNCC=C3C(C#N)=C(N)C2(C#N)C#N)ccc1OC(C)C | i
95 | CNC(=O)CN(c1cccc2ccccc12)S(C)(=O)=O | 0.1
96 | CN(C)CCCN1CC(C(=O)O)CC1=O (configuration not stated) | i
97 | CCOC(=O)N1CCN(c2nc(C(F)(F)F)nc3c(C)cc(C)cc23)CC1 | i
98 | CC(=O)Nc1ccc(NC(=O)C(C)n2nc([N+](=O)[O-])c(Br)c2C)cc1 (configuration not stated) | 0.8
99 | CCOC(=O)c1cc(OC(=O)c2cccnc2)n(-c2ccccc2)n1 | 0.2
100 | COc1cc(S(=O)(=O)N(Cc2cccs2)CC2CCCO2)ccc1-n1cnnn1 (configuration not stated) | i
101 | C/C(=N\O)c1c(C)c2ccccc2n1C | 0.5
102 | Oc1ccccc1Nc1nc(NCC2CCCO2)c2ccccc2n1 (configuration not stated) | i
103 | CCOC(=O)c1c(C)n(C)c2ccc(OC)c(NC(=O)c3cccs3)c12 | 0.5
104 | CCOC(=O)c1ccc(NS(=O)(=O)c2cccc3nsnc23)cc1 | 1.2
105 | COCc1[nH]nc2c1C1(C(=O)Nc3ccc(F)cc31)C(C#N)=C(N)O2 (configuration not stated) | i
106 | O=C(Cn1cnc2ccccc2c1=O)N(Cc1ccco1)c1ccc(O)cc1 | 0.1
107 | COc1ccccc1-c1nnc(NC(=O)C(C)C)s1 | i
108 | O=C(NCC1COc2ccccc2O1)c1cn(Cc2ccc(F)cc2)nn1 (configuration not stated) | i
109 | CCCCn1c(-c2ccco2)nc2ccccc2c1=O | 4.3
110 | Cn1c(=O)c2c(nc(SCCN3CCCCC3)n2Cc2ccccc2)n(C)c1=O | 3.1
111 | Cc1ccc(S(=O)(=O)NCC(=O)N(CC(=O)NC2CCCCC2)Cc2ccco2)cc1 | 0.3
112 | COc1ccccc1NC(=O)CSc1nnc(C)n1Cc1ccccc1 | 1.6
113 | CC(=O)Nc1nc(-c2ccccc2)nc(C)c1C(C)=O | 2.5
114 | COC(=O)C(NC(C)=O)(Nc1ccc(Br)cc1)C(=O)OC | i
115 | O=C(Nc1ccc(Cl)cc1)OCc1cc(-c2ccccc2)on1 | i

Going on with the list:
nr | mol | H5N1 antiviral
116 | Cc1ccc(-c2nc3cc(NS(=O)(=O)c4ccc(C)cc4)ccc3o2)cc1 | i
117 | CCOC(=O)NC(=O)CSc1nnc(C)s1 | 0.5
118 | Nc1c(-c2ccc(Cl)cc2)cnn1C1CCS(=O)(=O)C1 (configuration not stated) | i
119 | Cc1ccc(OCC(=O)N/N=C/C=C/c2ccco2)cc1 | i
120 | O=C(CSc1nnc(Cc2cccs2)n1Cc1ccco1)Nc1ccc(Br)cc1 | i
121 | CCCN1c2cccc3cccc(c23)S1(=O)=O | i
122 | Cc1ccc(S(=O)(=O)NC(=O)c2cccn2C)cc1 | 1.8
123 | COC(=O)C1=C(CSc2nnnn2C)NC(=O)NC1c1cc(C)ccc1C (configuration not stated) | i
124 | O=C(COc1ccccc1)Nc1sc2c(c1C(=O)NCc1cccnc1)CCCC2 | i
125 | COc1cccc2c(=O)n(CC(=O)Nc3ccc(F)cc3F)ccc12 | i
126 | CC(=O)OC1(Cc2ccccc2)CN2CCC1c1ccccc12 (configuration not stated) | 1.1
127 | COc1cc(OC)c(OC)cc1/C=N/NC(=O)c1cc(-c2cccn2C)n[nH]1 | 0.9
128 | Cc1ccc(C)c(SCC(=O)OCC(=O)Nc2ccc(S(=O)(=O)N3CCOCC3)cc2)c1 | 0.8
129 | CCC(C)(C)NC(=O)C(c1ccccc1F)N(Cc1ccco1)C(=O)c1csnn1 (configuration not stated) | i
130 | N#Cc1c(N)oc(-c2ccccc2)c1-c1ccccc1 | i
131 | Cc1oc(-c2ccccc2)cc1C(=O)Nc1ccc2ccccc2c1 | i
132 | COC(=O)C1=C(C(=O)OC)SC2(S1)C(C(=O)OC)=C(C(=O)OC)SC1=C2c2cc(C)cc(C)c2NC1(C)C | i
133 | Cn1nnnc1SCCNS(=O)(=O)c1ccccc1 | i
